GAA spleen mod: inhibitors or activators of human alpha-glucosidase in spleen homogenate. P10253. Potency, µM (series often up to 79.9 µM), inactives show at the highest dose activity change, negative = inhibition, hits mostly inhibitors. actives 0.006% (n = 240,000). human spleen homogenate, 4-MU-alpha-glucoside fluorescence;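 further: 0% = enzyme with vehicle and -100% = no enzyme basal signal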
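Compounds were titrated against alpha-glucosidase in spleen homogenate at pH 5.0, with 1 mM 4-methylumbelliferyl substrate for 40 min at 37 C. Reactions were quenched with pH 10 NaOH/glycine and fluorescence measured.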
GAA glycogen: GAA glycogen-cleavage inhibition or activation | P10253 | recombinant GAA, glycogen substrate, Amplex Red glucose oxidase fluorescence | Potency, µM (titrated, usually from 76.4 µM), inactives show top-dose activity change, negative = inhibition, usual class: inhibitors | actives 0.38% (n = 300,000);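 further: 0% = full enzyme reaction and -100% = no-enzyme basal signal; the screen sought inhibitors and activators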
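Recombinant human enzyme (4 nM); glycogen substrate; 37 C, 40 min, pH 5.0. Readout: coupled glucose oxidase/Amplex Red fluorescence.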
ALDH1A1 block: ALDH1A1 (human) enzyme inhibition; Purified ALDH1A1, NADH fluorescence, propionaldehyde substrate; Potency, µM (highest dose often 75.3 µM), without a hit: top-dose activity, negative = inhibition, actives largely listed as inhibitors; actives 7.3% (n = 220,000); active means well fitted inhibition curve with a large enough effect, not every such curve was filed as active; inconclusive means small, poorly fitted or top-dose-only effect, or another doubt; inactive means no such curve, though single readings can be large or run the other way;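 further: plate controls were no enzyme wells and a reference inhibitor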
Target sequence (P00352 whole entry, looked up): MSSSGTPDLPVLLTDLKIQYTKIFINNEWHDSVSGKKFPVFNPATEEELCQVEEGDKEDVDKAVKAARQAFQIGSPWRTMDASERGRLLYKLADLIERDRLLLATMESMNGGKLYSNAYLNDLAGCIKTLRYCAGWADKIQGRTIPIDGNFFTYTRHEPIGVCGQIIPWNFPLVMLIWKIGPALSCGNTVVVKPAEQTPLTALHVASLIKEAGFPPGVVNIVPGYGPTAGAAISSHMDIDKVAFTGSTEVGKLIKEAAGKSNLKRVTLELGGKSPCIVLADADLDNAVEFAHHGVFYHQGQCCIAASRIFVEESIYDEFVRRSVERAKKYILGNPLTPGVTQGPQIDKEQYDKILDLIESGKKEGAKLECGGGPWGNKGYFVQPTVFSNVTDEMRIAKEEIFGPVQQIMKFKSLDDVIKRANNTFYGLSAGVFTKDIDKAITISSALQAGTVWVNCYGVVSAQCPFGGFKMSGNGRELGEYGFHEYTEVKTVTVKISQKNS
SMN2 splice up: SMN2 splice variant enhancement. Potency, µM (top dose mostly 46.1 µM), without a hit: at the top dose activity change, positive = activation, most hits filed as activators. actives 2.8% (n = 210,000). HEK293 SMN2-luciferase splicing reporter, luminescence, 30-36 h. AID 1458; further: % of control where 0% means no effect; nearly all actives have a fitted effect of over 55% in size
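HEK293 cells carry an SMN2 minigene-luciferase reporter in which exon 7 inclusion puts luciferase in frame. Cells were seeded at 2000 cells/well, attached for 10-12 hours, then exposed to compounds for 30-36 hours at 37C before ONE-Glo luminescence.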
aGal spleen mod: inhibitors or activators of human alpha-galactosidase in spleen homogenate; Potency, µM (top dose mostly 80 µM), inactives show at the top dose activity change, negative = inhibition, actives largely listed as inhibitors; actives 0.008% (n = 240,000); AID 2107; human spleen homogenate, 4MU-alpha-Gal fluorescence, 40 min;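 further: 0% = enzyme with vehicle and -100% = no enzyme basal signal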
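qHTS titration in buffer at pH 5.0. Alpha-galactosidase activity in spleen homogenate was measured via 4-methylumbelliferone release from 1 mM fluorogenic substrate after 40 min at 37C and a pH 10 stop. AC50 came from Hill fits of control-normalized data.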
RGS12 GoLoco inh: RGS12 GoLoco-Gai1 interaction inhibition; P63096; Gai1:RGS12 GoLoco peptide FP, rhodamine, 10 min; Potency, µM (top dose mostly 61.6 µM), for inactives: at the top dose activity, negative = inhibition, actives largely listed as inhibitors; actives 0.44% (n = 230,000); active means well fitted inhibition curve with a large enough effect, not every such curve was filed as active; inactive means no such curve, though single readings can be large or run the other way; further: on the % scale 0 is the no-effect control and ±100 the full control effect; nearly all actives have a fitted effect of over 30% in size; many of its hits are not listed in these tables
Target sequence (P63096 whole entry, looked up): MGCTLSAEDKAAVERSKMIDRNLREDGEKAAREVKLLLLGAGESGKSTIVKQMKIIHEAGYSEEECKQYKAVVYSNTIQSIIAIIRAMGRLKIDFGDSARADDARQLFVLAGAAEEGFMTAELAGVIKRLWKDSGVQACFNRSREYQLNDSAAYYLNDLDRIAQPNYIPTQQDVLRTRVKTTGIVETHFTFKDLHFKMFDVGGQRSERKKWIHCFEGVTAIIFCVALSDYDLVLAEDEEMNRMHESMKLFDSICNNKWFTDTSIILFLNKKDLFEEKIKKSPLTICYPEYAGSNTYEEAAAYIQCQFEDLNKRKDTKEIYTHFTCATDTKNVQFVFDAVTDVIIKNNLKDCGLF
GAA inh: alpha-glucosidase (human) inhibition. AID 1466. P10253. Potency, µM (highest dose often 76.9 µM), for inactives: at the highest dose activity change, negative = inhibition, usual class: inhibitors. purified human GAA, 4-MU-alpha-glucoside fluorescence. actives 0.005% (n = 200,000);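 further: plate controls were uninhibited enzyme wells for no effect and no-enzyme background for full effect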
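AC50 values come from Hill fits of compound titrations (up to 77 uM) against 4 nM human enzyme. Substrate 4-methylumbelliferyl-alpha-D-pyranoside at 400 uM, pH 5.0 citrate buffer, 20 min room temperature; fluorescence Ex 365/Em 440 after alkaline stop.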
Active calls of the source: *; ? = inconclusive; / = no result given; [ ] = remark or other dose. Unless noted, the call rests on the fitted dose curve; in most records, active means well fitted curve in the direction sought with a large enough effect; inconclusive means small, poorly fitted or top-dose-only effect, or another doubt; inactive means no such curve, though single readings can be large; an effect the other way counts as inactive or inconclusive. Potency means the concentration at half of the fitted maximal effect. This is a subset; count on the stated rates, not on these rows.

SMILES	GAA spleen mod	GAA glycogen	ALDH1A1 block	SMN2 splice up	aGal spleen mod	RGS12 GoLoco inh	GAA inh
COCCNC(=S)N(Cc1cccs1)Cc1cc2cccc(C)c2[nH]c1=O	-6%	-4%	13µM*	/	-26%	-10%	-7%
O=C(NNC(=O)c1ccc2ccccc2c1O)c1ccccc1Cl	-1%	0%	6%	17%	-4%	-9%	1%
C=CCc1ccc(OCCCCN2CC(C)OC(C)C2)c(OC)c1 (configuration not stated)	-1%	3%	-12%	-17%	1%	-11%	3%
COc1ccc(CN2CCN(C(=O)CC(C)C)CC2)cc1OC	-5%	-2%	4%	6%	5%	-5%	-9%
NC(=O)C1=C[C@H](c2ccccc2)C[C@H](OCc2ccc(CO)cc2)O1	6%	-18%	?	/	4%	6%	/
O=C(NCc1ccccc1)C1=C[C@@H](c2ccccc2)C[C@@H](OCc2ccc(CO)cc2)O1	-2%	-9%	32µM*	/	-4%	22%	/
O=C(COc1ccccc1)N1CCN(C(=O)c2cccs2)CC1	-1%	8%	7%	-7%	0%	9%	3%
CN1CCN(S(=O)(=O)c2ccc(N3CCN(C(=O)c4ccccc4)CC3)nc2)CC1	1%	27%	?	-12%	-5%	6%	-5%
CCc1nc(N2CCN(C(=O)c3ccco3)CC2)c2c3c(sc2n1)CCCC3	-10%	-3%	?	-15%	2%	2%	6%
Clc1ccc(-n2ncc3c(NCc4ccco4)ncnc32)cc1	2%	-4%	7%	-19%	8%	-6%	-14%[15.4 µM]
COc1ccc(NC(=O)Nc2c(C)n(C)n(-c3ccccc3)c2=O)cc1	-3%	2%	-10%	23%	1%	2%	-8%
Cc1c(NC(=O)CNCc2ccc3c(c2)OCO3)c(=O)n(-c2ccccc2)n1C	6%	11%	/	/	5%	-2%	/
COc1cc(S(=O)(=O)N2CCCCC2)ccc1NC(=O)Cc1ccccc1	1%	-11%	?	-17%	-3%	4%	-7%
O=[N+]([O-])c1cccc(-c2cn3nc(-c4ccccc4)c(-c4ccccc4)nc3n2)c1	-1%	7%	-5%	/	-13%	11%	-8%
CCCCC1(C)NC(=S)N2N1C(=S)NC2(C)CCCC (configuration not stated)	1%	-8%	/	/	1%	7%	/
O=C1C2CC(O)CN2C(=S)N1Cc1ccccc1 (configuration not stated)	4%	-16%	/	/	12%	-23%	/
C=CCN1C=C2C(=O)C(C)(OC(=O)CCC(=O)OC)C(=O)C=C2C=C1C1CC1 (configuration not stated)	8%[17.4 µM]	27%	-9%[13.5 µM]	1%[9.22 µM]	4%[17.5 µM]	-11%[14.2 µM]	/
O=S(=O)(Cc1ccc(Cl)cc1)Nc1ccc(Cl)cn1	5%	-1%	2%	/	5%	4%	-14%
COc1ccc(OCC#CCn2ccnc2)cc1	0%	5%	?	-9%	1%	1%	5%
COc1ccccc1CNc1nc2nc3c(c(=O)n2[nH]1)CCC3	6%	8%	4%	-8%	11%	4%	2%
CCCCCCCCc1c(O)nc(-n2[nH]c(C)c(CCO)c2=O)[nH]c1=O	-2%	3%	5%	13%	8%	13%	-1%
COC(=O)c1cn(C(=O)c2ccccc2)c2ccccc12	3%	2%	6.3µM*	/	1%	2%	-2%
CCC(C)c1ccccc1NC(=O)C(C)NCCN(C)C (configuration not stated)	-6%	5%	/	/	1%	8%	/
O=C(NNc1nc2c(F)cccc2s1)c1ccccc1	-4%	?	3%	5%	3%	-4%	-7%
Fc1ccc(/C=C2\CCCC3=C2Nc2ncnn2C3c2ccc(F)cc2)cc1 (configuration not stated)	-9%	12%	?	-16%	0%	-3%	-2%
CC1(C)NC(=O)N(CC(=O)OCc2cc(=O)n3cc(Br)ccc3n2)C1=O	5%	10%	?	17%	3%	7%	9%
Cc1c(Cl)cccc1NC(=O)CCC(=O)NNC(=O)CCC(=O)O	1%	-1%	9%	1%	-4%	6%	-4%
Cc1nc2sc(C(=O)c3ccccc3)c(N)c2c(C)c1C	0%	7%	?	1%	10%	8%	1%
Cc1ccc(S(=O)(=O)N2CCOCC2)cc1NC(=O)CN1CCC(Cc2ccccc2)CC1	-4%	-11%	?	-56%[inhibitor]	1%	-7%	-3%
CSc1sc(-c2nnc(SCC(=O)Nc3ccccc3)n2C)c2c1C=CCC2	-1%	7%	15%	/	-2%	6%	-1%
Cc1ccc2cc(CN(CC3CCCO3)C(=S)NCc3ccco3)c(=O)[nH]c2c1 (configuration not stated)	0%	-13%	3.5µM*	/	-2%	7%	-4%
COc1ccccc1CNCc1ccc(OC)c(OC)c1OC	-5%	3%	-7%	3%	-3%	2%	-1%
O=C(C1CCCN(Cc2ccccc2)C1)N1CCCCC1 (configuration not stated)	14%	2%	20µM*	-2%	12%	-21%	-10%
O=C(C1CCCN(CCCc2ccccc2)C1)N1CCCCC1 (configuration not stated)	-3%	-15%	-10%	-1%	4%	2%	3%
CC1CCN(CCCCOc2cccc(Br)c2)CC1	-3%	4%	2%	-8%	-4%	2%	?
Cc1ccc(OCC(=O)NNC(=O)CSc2ncc(C#N)c(N)n2)cc1	-9%	11%	9%	-3%	-3%	13%	2%
O=Cc1ccc(OCc2nnsc2Cl)cc1	1%	-9%	?	-7%	-1%	-7%	0%
CCN(c1ccccc1)S(=O)(=O)c1ccc(Cl)c(NC(=O)CN(C)C2CCN(C)CC2)c1	-2%	-7%	/	/	1%	1%	/
CCn1nc(NC(=O)Cc2ccc(OC)cc2)c2cc3cccc(C)c3nc21	-7%	0%	-10%	/	-10%	1%	1%[15.4 µM]
Brc1cccc(OCCn2ccnc2)c1	5%	0%	?	8%	-6%	1%	-2%
C=CCN(CC=C)CCOc1cccc(Oc2ccccc2)c1	1%	4%	?	-6%	1%	6%	2%
COc1ccc2[nH]c3c(=O)n(/N=C/[C@H]4C(C)C=C(C)CC4C)c(=O)[nH]c3c2c1 (some centres not stated)	?	-15%	?	-89%	?	14%	?
CCCC(=O)NNC(=O)c1c(O)c2ccccc2[nH]c1=O	3%	-8%	-4%	-8%	1%	0%	3%
FC(F)(F)c1ccccc1CN1CCN(C2CCCCCC2)CC1	2%	6%	?	-27%	-3%	-3%	-15%
C=CCn1c(SCc2cc(C(=O)OC)c(C)o2)nnc1-c1ccncc1	-1%	-3%	?	-13%	-2%	43%[activator]	-3%
CCSc1nnc(NC(=O)c2cc(C)oc2C)s1	-2%	6%	?	11µM*	-2%	-15%	12%
COc1cccc(CN(C)CC(=O)Nc2ccccc2C(C)C)c1	-1%	-1%	20µM*	-42%[inhibitor]	1%	-6%	-3%
Cc1ccc(S(=O)(=O)Nc2cnc3ccccc3c2)cc1	-7%	16%	?	/	-18%	14%	5%
O=C(CN1CCCCCC1)Nc1ccc(F)c(F)c1	-6%	7%	22µM*	-10%	?	-9%	-3%
CCOC(=O)C1CCN(C(=O)CC(NS(=O)(=O)c2ccc(OC)cc2)C(C)C)CC1 (configuration not stated)	-6%	5%	-11%	-2%	-4%	-1%	-8%
COCCN1C(=O)c2[nH]nc(-c3ccccc3O)c2C1c1ccc(OC)cc1 (configuration not stated)	3%	-3%	/	/	3%	2%	/
COc1ccc(O)c(C(=O)C2c3ccccc3C(=O)N2c2ccc(C)cc2)c1 (configuration not stated)	3%	?	11µM*	/	9%	-21%	-2%
O=c1[nH][nH]c(-c2ccccc2O)c1C(C[N+](=O)[O-])c1ccc(Br)cc1 (configuration not stated)	7%	-3%	?	4%	7%	14%	1%
CC(c1ccccc1)c1nnc(NC(=O)c2ccc3c(c2)OCO3)s1 (configuration not stated)	-19%	7%	/	/	5%	0%	/
CCS(=O)(=O)c1ccc2oc(=O)c(/C=C(\O)c3ccc(Cl)cc3)nc2c1	-3%	?	?	-6%	-9%	15%	-5%
CSc1ccc(/C=C(\C#N)C(=O)Nc2cccc(C)c2)cc1	4%	3%	-5%	?	0%	1%	1%
COc1ccccc1CNCc1cccc(Oc2ccccc2)c1	-1%	21%	?	-17%	-6%	12%	-1%
CC1(C)C2CCC(C2)C1(C)NC(=O)CN1CCN(Cc2ccccc2)CC1 (configuration not stated)	5%	-2%	?	-14%	7%	-5%	1%
COc1ccc(S(=O)(=O)N2CCCCC2)cc1NC(=O)C1CCCO1 (configuration not stated)	-2%	-6%	?	15%	-4%	6%	-10%
CCCN(CCC)C1=N/C(=C\c2ccco2)C(=O)N1c1ccccc1	-8%	-1%	14µM*	-8%	-8%	60%[activator]	?
Further compounds follow:
SMILES	GAA spleen mod	GAA glycogen	ALDH1A1 block	SMN2 splice up	aGal spleen mod	RGS12 GoLoco inh	GAA inh
O=C(NNC(=O)c1ccccn1)c1cccc([N+](=O)[O-])c1	3%	20%	9%	-12%	3%	5%	-9%
COC1CCCCC1Nc1cc(C)ccc1C (configuration not stated)	-2%	-1%	?	8%	3%	-11%	0%
C/C(CCC(C)C)=N\Nc1cc(C)c2ccccc2n1	15%	?	?	2%	5%	18%	6%
O=C(COc1ncnc2ccccc12)c1ccc2c(c1)OCCO2	-6%	6%	?	/	2%	/	-5%
Cc1ccc(-n2[nH]c(C)c(C=Nc3ccc(C)cn3)c2=O)cc1	-12%	1%	?	/	3%	6%	-6%
COc1ccc(C(=O)COC(=O)c2ccc3ccccc3n2)cc1	-6%	4%	18µM*	-7%	-4%	9%	3%
CCc1nn(-c2ccccc2)c2c1-c1cc(OC)c(OC)cc1C1(N2)C(=O)Nc2ccccc21 (configuration not stated)	2%	?	2%	12%	3%	11%	1%
Cc1ccc(S(=O)(=O)N(C)C)cc1NC(=O)c1cc(=O)[nH]c2ccccc12	-5%	0%	?	/	0%	-19%	/
COc1ccccc1NC(=O)N1CCN(Cc2ccc3c(c2)OCO3)CC1	-3%	11%	?	/	-6%	-3%	-7%[15.4 µM]
Cc1cccc(NC(=O)c2nc[nH]c2C(=O)N[C@@H](C)C(=O)OC(C)(C)C)c1	-1%	-2%	/	/	4%	1%	/
Cc1ccc(/C=C2/C(=O)N(c3ccccc3)C(=S)N2C)o1	8%	0%	4µM*	-1%	8%	-9%	-1%
CCCC(c1nnnn1C(C)(C)C)N1CCN(C(=O)c2ccco2)CC1 (configuration not stated)	4%	-2%	-11%	4%	6%	4%	7%
O=C(Nc1nnc(-c2ccc3c(c2)CCCC3)o1)c1c(F)cccc1F	/	-6%	?	-5%	6%	33%[activator]	-8%
O=C(Oc1ccc(N(C(=O)c2ccncc2)S(=O)(=O)c2ccc(F)cc2)cc1)c1ccncc1	-6%	0%	1%	-12%	20%	-4%	-3%
CC(=O)c1ccc(N2CCN(CC(O)COCc3ccco3)CC2)cc1 (configuration not stated)	8%	23%	?	20%	4%	2%	2%
CN(C)CCCNCC(=O)NN(c1ccccc1)c1ccccc1	2%	11%	/	/	1%	-14%	/

In the list so far, these contain a tert-butyl group:
SMILES	GAA spleen mod	GAA glycogen	ALDH1A1 block	SMN2 splice up	aGal spleen mod	RGS12 GoLoco inh	GAA inh
Cc1cccc(NC(=O)c2nc[nH]c2C(=O)N[C@@H](C)C(=O)OC(C)(C)C)c1	-1%	-2%	/	/	4%	1%	/
CCCC(c1nnnn1C(C)(C)C)N1CCN(C(=O)c2ccco2)CC1 (configuration not stated)	4%	-2%	-11%	4%	6%	4%	7%
